Compound activity: PubChem BioAssay, Broad Institute
Tg IFNy HTS – blocks Toxoplasma gondii growth in the presence of IFN-gamma | 3.8% of 69,000 active | activity change, negative = inhibition, %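 (about 20 µM by stock and volumes)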 | Toxoplasma gondii growth in IFN-gamma-treated host cells; hits give low values; reference of the scale not given here;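 active = below -70%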;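 note: host cells are HeLa cells infected with Toxoplasma gondii; parasite growth read as luciferase light; one replicate is shown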
The depositor's hits bear a star; i = inactive; & = joins results of further samples; ! = a repeat was not active. These rows are one share of the data, so the mix of outcomes need not match the whole.

SMILES | Tg IFNy HTS
Cc1nc(C(=O)N(C)Cc2cc(C(C)(C)C)n[nH]2)cs1 | 3
CC(CCc1ccc(O)cc1)NCCc1ccc(O)c(O)c1 (stereo not drawn) | 5
Cc1cnc(CNC(=O)c2nc(-c3cn(Cc4ccc(F)cc4F)c(C)n3)n3ccccc23)cn1 | -23
COCC(=O)Nc1ccc(-c2nc(Cn3cccn3)c(C)o2)cc1 | 28
COC(=O)C[C@@H]1CC[C@@H]2[C@H](COc3ccc(NC(=O)Nc4cccc(C#N)c4)cc3C(=O)N2C)O1 | -9
Cn1nc(CN2CCCCC2)c2c1CN(C(=O)Nc1cccc(F)c1)C2 | -9
COc1ccc(S(=O)(=O)N2CCCC2)cc1C(=O)O | 32
CC(C)O[C@H]1CN(C(=O)c2cc(Cn3ccc4ccccc43)[nH]n2)C[C@@H]1O | 3
CN(C)C(=O)N1CC[C@H]2OCC[C@@]2(COCc2cccnc2)C1 | -40
CCOC(=O)c1nc(NCc2cccs2)c2ccccc2n1 | 42
O=S(=O)(c1cc(Cl)c(Cl)cc1Cl)N1CCCC1 | 3
Cc1noc(C)c1CCC(=O)N1CCCC(c2[nH]ncc2C(=O)N(C)Cc2ccccc2)C1 (stereo not drawn) | 4
C[C@@H]1CCCCO[C@@H](CN(C)S(C)(=O)=O)[C@@H](C)CN([C@H](C)CO)C(=O)c2cc(NC(=O)NC3CCCCC3)ccc2O1 | 55
CCOC(=O)c1cc(C)n(-c2ccccc2)c1C | -15
CCOc1ccc(-c2ccnc3c2ccn3C)nn1 | 67
Cc1noc2ncnc(SCC(=O)c3ccc(Cl)cc3)c12 | 24
CNC[C@@H]1Oc2c(NS(=O)(=O)c3ccc(Cl)cc3)cccc2C(=O)N([C@@H](C)CO)C[C@@H]1C | -21
O=C(Cn1cnc2c([nH]c3ccc(F)cc32)c1=O)NCc1ccccn1 | 11
CCc1ccc(-c2cc3c(=O)n(Cc4nc(-c5ccccc5OC)oc4C)ccn3n2)cc1 | 426
Cc1ccccc1S(=O)(=O)N1[C@@H]2CNC[C@H]1[C@@H]2c1ccc(-c2ccc(C#N)cc2)cc1 | 17

Given as tab-separated lines: entries from further up.
SMILES	Tg IFNy HTS
COC(=O)C[C@@H]1CC[C@@H]2[C@H](COc3ccc(NC(=O)Nc4cccc(C#N)c4)cc3C(=O)N2C)O1	-9
Cn1nc(CN2CCCCC2)c2c1CN(C(=O)Nc1cccc(F)c1)C2	-9
CN(C)C(=O)N1CC[C@H]2OCC[C@@]2(COCc2cccnc2)C1	-40
Cc1cnc(CNC(=O)c2nc(-c3cn(Cc4ccc(F)cc4F)c(C)n3)n3ccccc23)cn1	-23
O=S(=O)(c1cc(Cl)c(Cl)cc1Cl)N1CCCC1	3
CCOC(=O)c1nc(NCc2cccs2)c2ccccc2n1	42

(more compounds)
SMILES | Tg IFNy HTS
O=C1CCCN1CC1CN(C(=O)C2CCOC2)Cc2nccn2C1 (stereo not drawn) | -57
Cc1oc(-c2ccc(C(=O)NCCCN3CCCC3)cc2)nc1CN1CCN(c2ccccc2)CC1 | -60
Cc1ccc(C(=O)N2CCC3(CC2)Nc2ccccc2-n2cccc23)cc1F | 42
Cc1ccc2c(c1)c1c(n2CCc2ccc(C)nc2)CCN(C)C1 | 18
CCC(=O)N1[C@@H]2Cn3c(cccc3=O)[C@H]1[C@@H](C(=O)NC1Cc3ccccc3C1)[C@@H]2CO | -26
COc1cccc(C(=O)N2CCc3ncnc(N4CCCC4)c3CC2)c1 | -12
CNC(=O)Cn1cc(-c2ccc(CO)cc2)cn1 | 12
COc1ccc(Cn2c(-c3ccncc3)n[nH]c2=O)cc1 | -4
COCCCNC(=O)c1ccc(-c2nc(CN3CCc4ccccc43)c(C)o2)cc1 | 8
Fc1cccc(-c2ncnc3c2CCN(c2ncccn2)CC3)c1 | -1
O=S(=O)(c1cccc2cccnc12)N1C=CC(C(F)(F)F)=NCC1 | -1
O=C(CN1C(=O)CCc2cc(S(=O)(=O)N3CCCC3)ccc21)Nc1ccccc1 | -1
c1coc(CNC2CCN(c3ccc4c(c3)OCCO4)CC2)c1 | 11
CS(=O)(=O)N1C[C@H](C(=O)NCc2ccco2)C[C@@H]2OCC[C@@H]21 | 113
Cc1oc(-c2ccccc2)nc1Cn1nnc(C(=O)Nc2cccc(Cl)c2)c1C | 229
CCOC(=O)c1cc(C)n(Cc2ccncc2)c1C | 42
Cc1cc(C)n(Cc2nc(-c3ccc(NC(=O)c4ccc(C#N)cc4)cc3)oc2C)n1 | -13
O=C1c2ccccc2C(=O)C1c1nc2ccc3ccccc3c2s1 | 12
Cc1cc(N2CCCN(Cc3ccc(Cn4cccn4)cc3)CC2)ccn1 | -9
Cc1cccn2cc(Cn3c(=O)n(CC4CC4)c4ccc(C(=O)O)cc43)nc12 | 2
Cn1cnnc1C1CCN(c2nc(-c3cccnc3)nc3c2cnn3C)CC1 | -46
CC(C)c1ccc(-c2cn(C(C)c3nccs3)nn2)cc1 (stereo not drawn) | 172
CC(C)c1nc(CN(C)c2ncnc3[nH]ccc23)cs1 | 35
C=C(C)[C@@H]1CC=C(CN2CCCN(C(=O)COC)CC2)CC1 | -11
COc1ccc(C(=O)N2CCC3(CC2)NC(=O)c2cc(Cl)ccc2N3C)cc1OC | 14
NC(=O)c1cnc2n1CCN(C(=O)c1nc3c(s1)CCCC3)C2 | -4
O=C(Oc1ccc(Oc2ccccc2)cc1)N1CCC(OC(=O)n2ccnc2)CC1 | -97*
COCCNC(=O)c1nc(Nc2ccc(F)cc2)c2ccccc2n1 | 1
O=C1C(Cc2ccccc2)N=C2c3ccccc3N=C(SCc3ccccc3F)N12 (stereo not drawn) | -36
COc1cccc(-c2ccc(C3[C@@H]4CN(C(=O)Nc5ccccc5F)C[C@H]3N4)cc2)c1 (stereo partly drawn) | -74*!
COCCN(C)C[C@@H]1CCC[C@@H]2CN(Cc3nccs3)C[C@H]21 | -4
CCS(=O)(=O)N1CCC2(CC1)OC(=O)C(C)=C2C(=O)NCCCN1CCCC(C)C1 (stereo not drawn) | 18
CCN1C(=O)CCC12CCC(NC(=O)c1cccn1C)CC2 (stereo not drawn) | 185
C[C@@H]1CN([C@@H](C)CO)C(=O)c2c(c3ccccc3n2C)-c2ccccc2CO[C@H]1CN(C)Cc1cccc(C(F)(F)F)c1 | -66
CCOc1ccccc1-c1nc(CSc2nc3c(c(=O)[nH]2)CN(CCOC)CC3)c(C)o1 | 21
CCc1ccc(Nc2nc(C(=O)NC)nc3ccccc23)cc1 | -6
O=C(O)Cc1nn(Cc2nc3cc(C(F)(F)F)ccc3s2)c(=O)c2ccccc12 | 20
CCc1nc(N2CCOCC2)c(C#N)c2c1COC(C)(C)C2 | 24
Cc1ccc(NC(=O)C(=O)NCCc2csc(-c3cccc(F)c3)n2)cc1C | 26
O=C(Cc1csc(Nc2ccccc2)n1)Nc1ccccc1 | 158

Reformatted: entries from further up
Compound	Tg IFNy HTS
CC(CCc1ccc(O)cc1)NCCc1ccc(O)c(O)c1 (stereo not drawn)	5
C[C@@H]1CCCCO[C@@H](CN(C)S(C)(=O)=O)[C@@H](C)CN([C@H](C)CO)C(=O)c2cc(NC(=O)NC3CCCCC3)ccc2O1	55

Further records.
SMILES | Tg IFNy HTS
COc1cccc(-n2c(=O)c(C(=O)Nc3ccccc3)c(O)c3cccnc32)c1 | 50
CC(=O)N1C[C@H]2CCC[C@]2(COCc2csc(C)n2)C1 | 32
Cc1ccc(C(=O)N2CC(=O)N(C3CCCCC3)CC(OCc3ccccc3)C2)cn1 (stereo not drawn) | 9
CC(C)C(C)NC(=O)c1ncn2c(C3CCN(Cc4cccnc4)CC3)ccnc12 (stereo not drawn) | -28
O=C(Nc1ccc(F)cc1F)c1cncc(NS(=O)(=O)c2ccc(Br)cc2)c1 | -33
CCCN(c1cccc(Cl)c1)c1nc(C(=O)OCC)nc2ccccc12 | -12
Cn1cc(CN2CCCC23CCN(c2ccc(C#N)cc2)CC3)cn1 | 0
CC(C)CN1C[C@H]2[C@H](C(=O)N(C)Cc3ccccn3)CCS(=O)(=O)[C@H]2C1 | 1
Cc1ccc(Nc2nc(C(=O)NCCc3ccco3)nc3ccccc23)cc1 | -29
Cc1ccc(CN2CCN(C(=O)CCc3ccccn3)CC2=O)cc1 | -1
CCN(CC)c1ccc2ccc(C(=O)N(CCOC)CCOC)cn12 | -8
COc1ccccc1NC(=O)Cn1c(=O)cc(C(=O)N2CCC(C)CC2)c2ccccc21 | 9
Cc1cccc(-c2ccc(CC3CN(C(=O)CN4CSCC4=O)CCNC3=O)cc2)c1 (stereo not drawn) | -3
Cc1ccc(-c2coc(-c3ccc(NC(=O)Nc4ccccc4F)cc3)n2)cc1 | 48
CCOc1ccccc1NC(=O)N1CCC2(CC1)NC(=O)c1cc(F)ccc1N2C | 5
CCCCCOc1ccc(C(=O)c2ccccc2)cc1 | -11
O=S(=O)(Nc1nccs1)c1ccc(-n2cccc2)cc1 | -31
O=C(NCCc1csc(-c2cccnc2)n1)c1ccc2c(c1)CCCO2 | 16
O=C(c1cc(COc2cccc(F)c2)[nH]n1)N1CCOCC1CO (stereo not drawn) | 12
O=C(C[C@H]1CC[C@H](NC(=O)Nc2ccc(C(F)(F)F)cc2)[C@H](CO)O1)NCc1cccc(F)c1 | -59
Cc1ccc(CCCO)c(NCc2ccc3nc(NCCCN4CCOCC4)n(Cc4nc(C)ccc4O)c3c2)c1 | -3
COc1ccc(-c2nc(C)c(CCNC(=O)Cc3ccc(F)cc3)s2)cc1 | i
O=S(=O)(Cc1ccccc1)Nc1ccc(S(=O)(=O)N2CCCCC2)cc1 | -59
N#C[C@@H]1[C@H](c2ccccc2)[C@@H](CO)N1S(=O)(=O)c1cccc(F)c1 | 8
CCn1cncc1CNC(=O)c1ccc(-c2ccccc2Cl)o1 | -32
C[C@H](CO)N1C[C@H](C)[C@H](CN(C)C(=O)NC2CCCCC2)OCc2cn(nn2)CCCC1=O | 370
CCS(=O)(=O)N1CCc2ncc(Cn3cccn3)n2CC1 | 5
Cc1ccc(-c2cc(C(=O)Nc3ccc(N4CCCS4(=O)=O)cc3)no2)cc1 | 10
COc1ccc(-c2[nH]c3ncccc3c2CN2CCC(O)(c3ccccc3C)CC2)cc1 | -98*
O=C(Nc1cccc(F)c1)N1CC(C(=O)N2CCOCC2)C2(CCOCC2)C1 (stereo not drawn) | -6
O=S(=O)(NCCc1csc(-c2ccc(F)cc2)n1)c1ccc(F)cc1 | -53
O=C(Cc1cccnc1)N1CC(=O)N2[C@H](C1)[C@H](c1ccc(C3=CCCCC3)cc1)[C@@H]2CO | 8
CCOC(=O)Cc1ccc(NC(=O)N2CCC3(CC2)Nc2cc(F)ccc2-n2cccc23)cc1 | 112
CC1=C(CCN2CCC(CNS(C)(=O)=O)C2)C(C)(C)CCC1 (stereo not drawn) | -12
CO[C@@H]1CCN(C(=O)c2ccn(C)n2)C[C@@H]1Cc1cccc(C)c1 | 23
O=C(c1ccc2c(c1)OCO2)N1CCCCC1 | -4&24
Cc1nc([C@@H]2C[C@H]3CCN(Cc4sccc4C)C[C@@H]3O2)no1 | 96
COc1ccc(NC(=O)C2CC(=O)c3ccccc32)c(NC(=O)C(C)C)c1 (stereo not drawn) | -1
COc1ccccc1CNC(=O)c1c(O)c2cccnc2[nH]c1=O | -2
CCN(Cc1ccccc1)C(=O)c1nc2c(n1C(C)C)CCN(C(C)C)C2 | -38
O=C(C[C@@H]1CC[C@H]2NC[C@@H](O)COC[C@@H]2O1)NCCN1CCCCC1 | 8
CCOC(=O)c1cc(C2CC2)nc2c1c(=O)n(Cc1nc(-c3ccc(OC)cc3)oc1C)c(=O)n2C | -23
Cc1nc(N2CCC(C(=O)N3CCc4ccccc4C3)CC2)nc2cc(S(C)(=O)=O)ccc12 | -12
COc1ccc2c(c1)NC1(CCN(C(=O)CCC3CCCC3)CC1)c1cccn1-2 | -35
C#CCOc1ccc(C(=O)N2CCN(c3ccccn3)CC2)cc1 | 7
Cc1cc(C)c2c(CC(=O)NCc3cccnc3N3CCOCC3)coc2c1 | -53
CCCNC(=O)c1cc2c(s1)CCN2c1ncccn1 | 58
Cc1ccc(C)c(-c2coc(-c3ccc(NC(=O)C4CCCCC4)cc3)n2)c1 | -41
COc1cc(-c2ccc(C)s2)cc2c1OCCN(Cc1cnn(C)c1)C2 | -2
CCn1nc(C)c2nc(SCC(=O)Nc3ccc(C)cc3)n(CC3CCCO3)c(=O)c21 (stereo not drawn) | -54
CS(=O)(=O)N1C[C@@H]2COC[C@@]2(Cc2nnc(C3CC3)o2)C1 | 29
O=S(=O)(NCCc1csc(-c2cccc(F)c2)n1)c1ccc2c(c1)OCCO2 | 80
COCCC(=O)N1CC2CN(C(=O)CCc3ccccc3)C2C1 (stereo not drawn) | 65
Cn1cc(C[C@H]2[C@@H](O)CCN2C(=O)Cc2cccc(F)c2)cn1 | 23
Cc1ccc(S(=O)(=O)Nc2ccc3c(c2)C(=O)N(C)[C@H]2CC[C@H](CC(=O)NCCc4ccncc4)O[C@H]2CO3)cc1 | -11
Cn1ccnc1SCCn1ccnc1-c1ccccc1C(=O)O | 7
O=S(=O)(NCCc1csc(-c2cccc(F)c2)n1)c1cccc(Cl)c1 | -14
O=C(NCCN1CCc2ccccc21)C1CCC(CNC(=O)C2CCOC2)CC1 (stereo not drawn) | -2
CC(C)(C)n1ccc(C(=O)N2CCOC(c3ccc(Cl)cc3)C2)c1 (stereo not drawn) | 2
CN(C)CC1(O)CCN(C(=O)c2cccc3nccnc23)C1 (stereo not drawn) | -7
Nc1nc2ccc(C(=O)N3CCOCC3)cc2s1 | 11
CO[C@H](C(=O)N(C)C[C@H]1OCc2ccccc2-c2ccccc2C(=O)N([C@H](C)CO)C[C@H]1C)c1ccccc1 | 78

Gathered by group, the entries above with a cyano group
SMILES | Tg IFNy HTS
COC(=O)C[C@@H]1CC[C@@H]2[C@H](COc3ccc(NC(=O)Nc4cccc(C#N)c4)cc3C(=O)N2C)O1 | -9
Cc1ccccc1S(=O)(=O)N1[C@@H]2CNC[C@H]1[C@@H]2c1ccc(-c2ccc(C#N)cc2)cc1 | 17
Cc1cc(C)n(Cc2nc(-c3ccc(NC(=O)c4ccc(C#N)cc4)cc3)oc2C)n1 | -13
CCc1nc(N2CCOCC2)c(C#N)c2c1COC(C)(C)C2 | 24
Cn1cc(CN2CCCC23CCN(c2ccc(C#N)cc2)CC3)cn1 | 0
N#C[C@@H]1[C@H](c2ccccc2)[C@@H](CO)N1S(=O)(=O)c1cccc(F)c1 | 8
